High-throughput results: PubChem BioAssay, National Center for Advancing Translational Sciences (NCATS)
FEN1 inh: blocks human flap endonuclease 1 | Recombinant FEN1 flap cleavage, fluorescence, 15 min | Potency, µM (titrated, usually from 114 µM), for inactives: at the top dose activity change, negative = inhibition, most hits filed as inhibitors | 0.35% of 390,000 active | AID 588795; note: nearly all actives have a fitted effect of over 65% in size
Target sequence (P39748 whole entry, looked up): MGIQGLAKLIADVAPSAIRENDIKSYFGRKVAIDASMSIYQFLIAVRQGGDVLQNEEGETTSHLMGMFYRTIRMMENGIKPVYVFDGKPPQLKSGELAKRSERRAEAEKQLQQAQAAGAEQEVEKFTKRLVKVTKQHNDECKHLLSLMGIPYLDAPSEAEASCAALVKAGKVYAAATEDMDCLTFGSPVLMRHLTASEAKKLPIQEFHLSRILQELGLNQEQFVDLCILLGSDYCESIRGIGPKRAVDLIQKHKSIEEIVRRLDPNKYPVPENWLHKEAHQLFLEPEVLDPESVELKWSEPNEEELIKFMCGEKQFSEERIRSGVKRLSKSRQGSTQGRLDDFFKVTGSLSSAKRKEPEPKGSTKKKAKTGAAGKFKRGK
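FEN1 at 10 nM preincubated with compounds 15 min at room temperature, then flap DNA substrate added at 50 nM final. Signal read at 0 and 15 min; concentration-response fitted with four-parameter Hill equation.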
N370S GC mod: inhibitors or activators of N370S glucocerebrosidase for Gaucher disease; N370S GC spleen homogenate, 4MU-glucoside fluorescence; AID 2101; P04062; 0.092% of 330,000 active; Potency, µM (top dose mostly 59.4 µM), for inactives: at the top dose activity change, negative = inhibition, hits mostly inhibitors;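 note: 0% = full enzyme activity and -100% = no enzyme basal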
* marks the source's active call; other numbers are inactive results; ? = inconclusive; . = no result given; & = joins results of further samples; [ ] = remark or other dose. Calls come from the whole dose curve; as a rule, active = well fitted curve in the direction sought with a large enough effect; inconclusive = small, poorly fitted or top-dose-only effect, or another doubt; inactive = no such curve, though single readings can be large; an effect the other way counts as inactive or inconclusive. Unless noted, % is set by controls: 0 for no effect and ±100 for the full control effect; potency is the fitted concentration of half-maximal effect.

N370S GC mod | FEN1 inh | molecule
12% | -20% | CCc1c(C)nc2c(Br)cccc2c1SCCC#N
4% | -7% | Cc1ccccc1NC(=O)COC(=O)/C=C/c1cn(-c2ccccc2)nc1-c1cccnc1
0% | -3% | CCOc1ccc(C(=O)c2cccs2)cc1
. | 19% | CCOC(=O)c1c(C)[nH]c(C)c1S(=O)(=O)N1CCCC(C(=O)Nc2cccc(C)n2)C1 (stereo not given)
26%[12.8 µM] | -10% | Cc1ccc(C(=O)Oc2ccc(C(=O)COC(=O)c3cnccn3)cc2)cc1
2% | -15% | C/C(=N\NC(=O)c1cccs1)c1ccc(C(=O)O)s1
-10% | 3% | CCCCCC(=O)C(=O)c1ccc(O)cc1O
5% | -3% | Cc1ccc2[nH]c(=O)c(CN(CCc3ccccc3)C(=O)N3CCOCC3)cc2c1
. | 2% | O=C(COc1ccc(Cl)cc1)NCC(c1ccco1)S(=O)(=O)c1ccccc1 (stereo not given)
-22% | 8% | CCC(Sc1nc2n[nH]c(C)c2c(=N)n1-c1ccc(C)c(Cl)c1)C(=O)N1CCOCC1 (stereo not given)
5% | -5% | Cc1ccc(/C=N/n2c(COc3ccccc3)n[nH]c2=S)cc1
3% | 8% | CC(=O)NS(=O)(=O)c1ccc(NC(=S)NC(=O)c2ccco2)cc1
. | -8% | Cc1ccc(/C=C/c2onc(C)c2S(=O)(=O)N2CCC(C(=O)N3CCOc4ccc(C)cc43)CC2)cc1
1% | -4% | O=C(CP(=O)(CO)CO)c1ccc(Cl)cc1
2% | . | COC(=O)CCCC[C@H]1SC[C@H]2NC(=O)N[C@]21O
2% | 1% | O=C(COC(=O)c1ccccc1)NCCC1=CCCCC1
-3% | 5% | O=C(Nc1ccccc1)Oc1ccc[nH]c1=O
3% | 0% | COc1ccccc1NC(=O)Nc1cnccn1
2% | . | COC(=O)c1ccc2c(C(C)(C)O)c(C(C)(C)O)[nH]c2c1
-1% | 19% | CCn1c(SCC(=O)Nc2ccc(OC)c(OC)c2)nnc1-c1ccco1
3% | -6% | O=C1OCC(CO)(CO)N=C1NNc1cc(Cl)ccc1Cl
-11% | -2% | CC1CN(S(=O)(=O)c2cccc(C(=O)Nc3ccc(S(=O)(=O)Nc4ncccn4)cc3)c2)CC(C)O1 (stereo not given)
6% | 3% | CC1=NN(/C(=N\c2nnc(C)s2)Nc2ccccc2)[C@H](c2ccc(C)cc2)S1
-14% | 10% | O=C(CSc1ncn[nH]1)N1c2ccccc2Sc2ccccc21
-7% | -5% | COC(=O)c1ccc(C2CC(=O)Nc3cc(OC)c(OC)c(OC)c32)cc1 (stereo not given)
. | 18% | CN(C)CCCNC(=O)C[C@H]1C[C@H](C(=O)N2CCOCC2)[C@@]2(C)c3[nH]c4ccc(Cl)cc4c3CCN2C1=O
-15% | -1%&3% | O=C(c1ccccc1)N1CCN(C(=O)c2ccccc2)CC1
. | 2% | Cc1cc(C)c2c(=O)cc(C(=O)Nc3nc4ccc(F)cc4s3)oc2c1
. | -10% | COc1ccc2nc(SCC(=O)c3c(N)n(C4CC4)c(=O)[nH]c3=O)[nH]c2c1
-24% | 0% | Cc1c(C(=O)OC(C)CCN(C)C)oc2ccccc12 (stereo not given)

18 compounds out of the list, sorted by number of heavy atoms, largest number first:
N370S GC mod | FEN1 inh | molecule
. | 18% | CN(C)CCCNC(=O)C[C@H]1C[C@H](C(=O)N2CCOCC2)[C@@]2(C)c3[nH]c4ccc(Cl)cc4c3CCN2C1=O
. | -8% | Cc1ccc(/C=C/c2onc(C)c2S(=O)(=O)N2CCC(C(=O)N3CCOc4ccc(C)cc43)CC2)cc1
-11% | -2% | CC1CN(S(=O)(=O)c2cccc(C(=O)Nc3ccc(S(=O)(=O)Nc4ncccn4)cc3)c2)CC(C)O1 (stereo not given)
4% | -7% | Cc1ccccc1NC(=O)COC(=O)/C=C/c1cn(-c2ccccc2)nc1-c1cccnc1
. | 19% | CCOC(=O)c1c(C)[nH]c(C)c1S(=O)(=O)N1CCCC(C(=O)Nc2cccc(C)n2)C1 (stereo not given)
5% | -3% | Cc1ccc2[nH]c(=O)c(CN(CCc3ccccc3)C(=O)N3CCOCC3)cc2c1
26%[12.8 µM] | -10% | Cc1ccc(C(=O)Oc2ccc(C(=O)COC(=O)c3cnccn3)cc2)cc1
. | -10% | COc1ccc2nc(SCC(=O)c3c(N)n(C4CC4)c(=O)[nH]c3=O)[nH]c2c1
. | 2% | Cc1cc(C)c2c(=O)cc(C(=O)Nc3nc4ccc(F)cc4s3)oc2c1
3% | 8% | CC(=O)NS(=O)(=O)c1ccc(NC(=S)NC(=O)c2ccco2)cc1
-14% | 10% | O=C(CSc1ncn[nH]1)N1c2ccccc2Sc2ccccc21
-15% | -1%&3% | O=C(c1ccccc1)N1CCN(C(=O)c2ccccc2)CC1
3% | -6% | O=C1OCC(CO)(CO)N=C1NNc1cc(Cl)ccc1Cl
-24% | 0% | Cc1c(C(=O)OC(C)CCN(C)C)oc2ccccc12 (stereo not given)
12% | -20% | CCc1c(C)nc2c(Br)cccc2c1SCCC#N
3% | 0% | COc1ccccc1NC(=O)Nc1cnccn1
-3% | 5% | O=C(Nc1ccccc1)Oc1ccc[nH]c1=O
1% | -4% | O=C(CP(=O)(CO)CO)c1ccc(Cl)cc1

The list goes on:
N370S GC mod | FEN1 inh | molecule
-11% | -3% | O=C(CCc1nnc(CCCc2ccccc2)o1)NCCc1ccco1
-24% | 0% | COc1ccc(C(=O)Nc2ccc3c(c2)C(=O)N(C)C3=O)cc1OC
. | -4% | CC(NC(=O)CN1C(=O)NC2(CCCC2)C1=O)c1ccc2ccccc2c1 (stereo not given)
-4% | 11% | Cc1ccc(-c2nnc(N3CCOCC3)c3ccccc23)cc1S(=O)(=O)N(C)C
-5% | 3% | COC(=O)c1cc(-c2cccc([N+](=O)[O-])c2)c2c(=O)[nH]c(=O)n(C)c2n1
3% | -12% | Cc1cc(-c2cccs2)c2c(n1)sc1c(=O)[nH]c(=O)[nH]c12
14% | 0% | COc1ccccc1C(=O)Nc1ccc2c(c1)nc1n2CCSC1
-5% | -5% | COc1ccc(S(=O)(=O)NC(C)C(=O)NCc2ccco2)cc1OC (stereo not given)
-4% | 14% | COc1ccc(OC)c(/C=N/NC(=O)c2c(C)nc3ccc(C)cn23)c1
. | -15% | Cc1cccc(N2CCN(C(=O)COc3cc(=O)n(C)c4ccccc34)CC2)c1C
. | 10% | CCCS(=O)(=O)c1nc(S(=O)(=O)c2ccc(C)cc2)c(N(CC)CC)s1
-5% | 1% | N#C/C(=C(/O)CSc1ncn[nH]1)c1nc2ccccc2[nH]1
-4% | 18% | COc1ccc(C2CC(c3ccc(Cl)cc3Cl)Nc3nc(N)nn32)cc1OC (stereo not given)
0% | -1% | Cc1ccc(S(=O)(=O)N2C(=O)CCC2C(=O)NCc2ccco2)cc1 (stereo not given)
5% | -4% | CCN(CC)c1nc(C)nc2c1cnn2CCc1ccccc1
9% | 0% | O=C1c2cccc([N+](=O)[O-])c2C(=O)N1c1c[nH]c(=O)[nH]c1=O
-19% | -22% | CN1CCc2nc(SCc3ccc(C(C)(C)C)cc3)c(C#N)cc2C1
5% | 7% | CC(O)Cc1nsc(NC(=O)c2ccc(Br)o2)n1 (stereo not given)
0% | 11% | O=C(CN(Cc1ccco1)C(=O)CNS(=O)(=O)c1ccccc1)NC1CCCCC1
1% | -2% | CCOC(=O)c1c(NC(=O)c2cccnc2Cl)sc(C(=O)N(C)C)c1C
29% | -6% | COc1cccc(C2c3c(C)nn(-c4ccc([N+](=O)[O-])cc4)c3N=C3C(=O)Nc4ccccc4N32)c1 (stereo not given)
-2% | -2% | COc1ccc(C(=O)N2CCCC(Nc3ccc(C)c(C)c3)C2)c(OC)n1 (stereo not given)
. | 8% | O=C(CCn1cnc2onc(-c3ccc(F)cc3)c2c1=O)N1CCN(c2cccc(Cl)c2)CC1
. | 0% | COc1ccc(NC(=O)CCCOc2ccc(Cl)c(C)c2)cc1S(=O)(=O)N1CCOCC1
-17% | 3% | Cc1ccc2c(CN3CCN(S(=O)(=O)c4ccc(Cl)cc4)CC3)cc(=O)oc2c1C
1% | 8% | CCOC(=O)N1CCN(C2CC(=O)N(c3ccccc3)C2=O)CC1 (stereo not given)
. | 4% | Cc1cccc(NC(=O)COC(=O)c2cccc(S(=O)(=O)N3CCCCCC3)c2)c1
-11% | 8% | O=C(O)C1CC(=O)N(c2ccc(F)cc2)C1 (stereo not given)
-7% | -11% | CC(C)(C)NC(=O)NC(=O)C[n+]1ccc(Cc2ccc([N+](=O)[O-])cc2)cc1
. | 3% | COc1ccc(Cn2c(C(=O)O)c(CNC3CCCC3)c3ccc(C)cc32)cc1
18% | 1% | Cc1cc(/C(N)=N/OC(=O)Nc2cccc(C(F)(F)F)c2)no1
0% | -8% | COc1ccc(-n2nnnc2CNC(=O)c2ccc(S(=O)(=O)N3CCOCC3)cc2)cc1
13% | -3% | COc1cccc(/C=C/C(=O)NCc2cn3cc(Cl)ccc3n2)c1
-4% | -8% | CC(N=C1CC(C)(C)CC(=O)/C1=C(/O)CCCN1C(=O)c2ccccc2C1=O)C(=O)O (stereo not given)
1% | -5% | CC(=O)Nc1ccc(C(=O)N2CCCc3ccccc32)cc1
4% | 2% | O=C(NNS(=O)(=O)c1ccccc1)C1CCN(S(=O)(=O)c2ccc(Cl)cc2)CC1
-21% | -2% | Cc1cccc(C(=O)N2CCC(c3nc4ccccc4s3)CC2)c1
11% | -3% | COCCn1c(SCC(=O)NC(C)c2ccccc2)nc2ccccc21 (stereo not given)
? | 16% | O=c1[nH]c2ccccc2nc1-c1ccccc1
? | -6% | Cc1cccn2c(=O)c3cc(C(=O)NC4CCS(=O)(=O)C4)n(Cc4ccccc4)c3nc12 (stereo not given)

Profiles, looked up by structure:
Shown for `COC(=O)CCCC[C@H]1SC[C@H]2NC(=O)N[C@]21O` : N370S GC mod = 2%; FEN1 inh = .
Shown for `CC(C)(C)NC(=O)NC(=O)C[n+]1ccc(Cc2ccc([N+](=O)[O-])cc2)cc1` : N370S GC mod = -7%; FEN1 inh = -11%

More entries follow.
N370S GC mod | FEN1 inh | molecule
. | -10% | CCCCSCCCNC(=O)c1cn(C)c2ccc(S(=O)(=O)N3CCCCCC3)cc2c1=O
-15% | -5% | Cc1ccc(CNC(=O)CSc2c3c(nc4ccc(Cl)cc24)CCCC3)o1
8% | -18% | Cc1cc2oc(C(=O)N(Cc3ccco3)C3CCS(=O)(=O)C3)cc(=O)c2cc1Cl (stereo not given)
-4% | -23% | CN(CC(=O)Nc1ccc(F)c(F)c1F)C(=O)CCc1nc2sc3c(c2c(=O)[nH]1)CCCC3
-10% | -8% | Cc1cccc(NC(=O)CSc2nnc(-c3ccncc3)n2C)c1
-12% | 3% | CCOC(=O)Cn1c(C)c(Br)c(COC)c(C#N)c1=O
? | -5% | CC(CN1CCOCC1)OC(=O)c1ccc(C(C)(C)C)cc1 (stereo not given)
-11% | 2% | CC(C)C(=O)Nc1ccc(N2CCCC2)c(Cl)c1
. | -2% | Cn1c(=O)c2c(-c3ccccc3Cl)n(Cc3ccc(Cl)cc3)cc2n(C)c1=O
8% | -4% | Cc1cccc2c1N(C(=O)CN1C(=O)c3ccccc3C1=O)C(C)(C)c1ssc(=S)c1-2
-16% | -7% | O=C(N/N=C/c1cccc(OC(=O)c2cccc(Br)c2)c1)c1cccnc1
. | 0% | COc1ccc(-c2nc(-c3cc4cc(Br)ccc4oc3=O)cs2)cc1
5% | -2% | CC1CC(C)CN(C(=O)CSc2nnc(-c3ccco3)o2)C1 (stereo not given)
-1%&-1% | -1%&1% | O=C(Cc1cc(=O)[nH][nH]1)N/N=C/c1c(Cl)cccc1Cl
. | -6% | Cc1ccc(NC(=O)Cn2nnc(-c3nc(-c4ccncc4)no3)c2N)c(C)c1
-8% | -3% | COc1ccc(-c2cc(C)nc(SCc3cccc(C(=O)O)c3)n2)cc1
4% | -10% | O=C(CCNS(=O)(=O)c1ccc(Br)cc1)NCc1ccc2c(c1)OCO2
. | -5% | COc1ccc(NC(=O)CC(C)S(=O)(=O)c2cc3c(cc2C)NC(=O)CO3)cc1OC (stereo not given)
-3% | -6% | CCOc1ccc(N2C(=O)CC(NC3CCN(C(=O)c4cccc(Cl)c4)CC3)C2=O)cc1 (stereo not given)
3% | -4% | O=C1CSC(c2cn(-c3ccccc3)nc2-c2ccccc2)N1Cc1ccco1 (stereo not given)
-2% | 19% | O=c1c2c(nc3nc(NCc4ccc(Cl)cc4)[nH]n13)CCC2

Some of the compounds tested; most or all hits stand in other tables.
